Assay outcomes: PubChem, several laboratories
PrP 5UTR inh: inhibition of PrP 5' UTR reporter expression | cell-based PrP 5' UTR mRNA reporter, plate reader | AID 488862 | 0.35% of 340,000 active | inhibition, % (concentration not given with the values);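 active means every replicate at 50% or more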;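 further: 0 = median of the neutral control wells; tested in H4 reporter cells; numbers are from one replicate; inactives centre near -14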
BJeLR viability: BJeLR cell viability loss; BJeLR (HRASV12) viability, CellTiter-Glo ATP luminescence, 48 h; reference of the scale not given here; inhibition, % (concentration not given with the values); 0.17% of 300,000 active; AID 1554;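 active means replicate mean above 50%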;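 further: 50 nL library stock added to about 25 µL; numbers are from one replicate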
Sa RN4220 lethal: S. aureus RN4220 growth inhibition; OD600, 16 h; AID 1259311; inhibition, % (concentration not given with the values); 0.33% of 330,000 active;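 active means z-score of -3 or lower and OD600 up to 0.18 on both plates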;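 further: plate controls were untreated cells for no effect and reference antibiotic for full effect; stock transfer was 100 nL into about 80 µL; one replicate is shown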
ugtP null kill: growth inhibition of S. aureus ugtP deletion strain | 0.54% of 330,000 active | S. aureus RN4220 ugtP deletion, OD600 growth, 16 h; some inactives read as strong as hits | growth inhibition, % (test concentration not listed) | AID 1259309;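 active means z-score under -3 and OD600 up to 0.15 on both plates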;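 further: plate controls were untreated wells for no effect and antibiotic for full effect; wells of about 80 µL received 100 nL stock; the first replicate is given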
Mtb hypoxia rep: inhibitors of hypoxia-regulated fluorescent reporter in Mycobacterium tuberculosis | M. tuberculosis hypoxia-regulated fluorescent reporter, fluorescence | fluorescence inhibition, % (concentration not given with the values) | 0.1% of 300,000 active;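 active means 35 to 45% if threefold the growth effect, above 45% if 1.5-fold the growth effect; inactive means the rest, general growth blockers included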;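 further: wells of about 50 µL received 100 nL stock; 0% = vehicle wells and 100% = reference inhibitor wells; whole bacteria with a GFP reporter of the hypoxia response; strong numbers were not always called active; many hits fall short of the cut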
Bead autofluor: compound fluorescence in toxin protease inhibitor counterscreen | compound autofluorescence counterscreen, microsphere flow cytometry; hits give high values | 3.1% of 360,000 active | fluorescence intensity (concentration not given with the values);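 active means at least 3 SD above the mean of all compounds, about 16000 in these data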;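 further: 100 nL of 1 mM stock went into each well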
Mtb hypoxia rep growth: second read-out of Mtb hypoxia rep, no call of its own (marks repeat the call); growth inhibition, %; measured here: M. tuberculosis growth (absorbance);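 0% = vehicle and 100% = reference antibiotic; read after six days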
* = called active by the depositor; . = not tested or not shown; & = joins results of further samples.

Screens in order – Sa RN4220 lethal	ugtP null kill	BJeLR viability	PrP 5UTR inh	Bead autofluor	Mtb hypoxia rep growth	Mtb hypoxia rep
> Cc1cccc(OCC(=O)Nc2ccccc2N2CCCCC2)c1C
→ -2.8	9.4	-0.9	-5.2	6518	-0.9	10.3
> CC1CCCCC1NC(=O)CCn1c(=O)oc2ccccc21 (stereo unspecified)
→ 3.1	6.2	-13.0	-26.5	10700	9.7	12.2
> COc1ccc(C=NNC(=O)c2cc(C34CC5CC(CC(C5)C3)C4)[nH]n2)cc1OC
→ -0.5	-31.5	.	.	.	-6.4	0.2
> CCn1c(=O)c(=O)[nH]c2cc(C(=O)NCc3ccc(F)cc3)ccc21
→ 3.8	0.2	-3.1	-17.1	5303	-1.8	-3.4
> CN(C(=O)c1ccc2c(c1)OCCO2)c1c(N)n(Cc2ccccc2)c(=O)[nH]c1=O
→ 0.4	4.2	17.5	-11.2	5059	13.3	5.1
> CC(=O)N(C)c1ccc(NC(=O)N2CCOCC2)cc1
→ 7.4	7.6	-2.3	-3.5	3035	4.7	9.9
> O=C(COC(=O)C1=NN(c2ccccc2)C(=O)CC1)Nc1nc(-c2ccc(F)cc2)cs1
→ -1.2	-8.9	.	-27.8	3772	12.1	-2.2
> Cc1cccc(NC(=O)CNC(=O)c2ccc3nc[nH]c3c2)c1C
→ 5.4	0.1	0.6	5.2	6588	4.4	6.5
> CC(C)c1nnc(NC(=O)CCC(=O)N2CCN(c3cccc(Cl)c3)CC2)s1
→ 0.7	0.4	-1.8	1.0	5132	7.1	14.7
> O=C(NCCCN1CCCC1=O)C(=O)NCC1OCCN1S(=O)(=O)c1ccc(Br)cc1 (stereo unspecified)
→ 3.0	10.2	-1.2	-6.6	4392	-3.9	0.7
> CN(C(=O)COC(=O)c1ccc(S(=O)(=O)N2CCOCC2)cc1)C1CCCCC1
→ 8.9	6.2	-1.9	-91.3	3839	4.8	12.0
> CNS(=O)(=O)c1cccc(C(=O)OCCCOC(=O)c2cccc(S(=O)(=O)NC)c2)c1
→ 3.8	5.0	-2.5	-7.7	5247	6.9	6.3
> CSc1cccc(NC(=O)/C=C/c2cccc(Cl)c2)c1
→ 13.7	-18.4	-1.9	-53.5	11998	-4.0	4.3
> Cc1ccc2nsnc2c1NS(=O)(=O)c1c(C)ccc2nsnc12
→ 11.9	-4.9	-0.5	-20.2	22309*	2.6	2.4
> CCOC(=O)c1cccc(NS(=O)(=O)c2cnc[nH]2)c1
→ 1.6	3.1	-0.6	-6.3	4664	.	.
> CCOC(=O)N1CCN(S(=O)(=O)c2ccc(C)c(C(=O)NC3CCCCC3)c2)CC1
→ 4.2	4.4	-5.8	-30.3	5169	2.4	4.0
> COc1ccccc1OCc1cc(C(=O)N(C)CCC2CCCCO2)no1 (stereo unspecified)
→ 3.4	9.7	-6.8	-81.2	6174	9.7	10.0
> O=C(O)c1cccc(Oc2ccccc2[N+](=O)[O-])c1
→ 5.6	-3.6	5.2	-31.6	2412	1.6	6.8
> Cc1cc(C)c2c(c1)CC(C)(C)CC2=O
→ -0.3	-1.8	.	-8.2	3015	0.6	5.1
> COc1ccc(Nc2ccnc3ccccc23)cc1
→ 3.1	0.3	1.1	0.5	2119	.	.

In the list so far, 3 have an aryl methoxy group.
Screens in order – Sa RN4220 lethal	ugtP null kill	BJeLR viability	PrP 5UTR inh	Bead autofluor	Mtb hypoxia rep growth	Mtb hypoxia rep
> COc1ccc(C=NNC(=O)c2cc(C34CC5CC(CC(C5)C3)C4)[nH]n2)cc1OC
→ -0.5	-31.5	.	.	.	-6.4	0.2
> COc1ccccc1OCc1cc(C(=O)N(C)CCC2CCCCO2)no1 (stereo unspecified)
→ 3.4	9.7	-6.8	-81.2	6174	9.7	10.0
> COc1ccc(Nc2ccnc3ccccc23)cc1
→ 3.1	0.3	1.1	0.5	2119	.	.

3 successive compounds from above, for reference:
Screens in order – Sa RN4220 lethal	ugtP null kill	BJeLR viability	PrP 5UTR inh	Bead autofluor	Mtb hypoxia rep growth	Mtb hypoxia rep
> COc1ccc(C=NNC(=O)c2cc(C34CC5CC(CC(C5)C3)C4)[nH]n2)cc1OC
→ -0.5	-31.5	.	.	.	-6.4	0.2
> CCn1c(=O)c(=O)[nH]c2cc(C(=O)NCc3ccc(F)cc3)ccc21
→ 3.8	0.2	-3.1	-17.1	5303	-1.8	-3.4
> CN(C(=O)c1ccc2c(c1)OCCO2)c1c(N)n(Cc2ccccc2)c(=O)[nH]c1=O
→ 0.4	4.2	17.5	-11.2	5059	13.3	5.1

Other compounds.
Screens in order – Sa RN4220 lethal	ugtP null kill	BJeLR viability	PrP 5UTR inh	Bead autofluor	Mtb hypoxia rep growth	Mtb hypoxia rep
> CCc1nc(SCC(=O)c2c[nH]c3ccccc23)n[nH]1
→ 2.6	3.4	3.3	-23.3	4367	2.5	-3.7
> C[C@@H](N)C(=O)NC[C@H]1O[C@@H](n2cnc3c(N)ncnc32)[C@H](O)[C@@H]1O
→ 2.3	5.9	.	-21.6	3377	2.9	-5.6
> Cc1ccc(-c2[nH]c3cc(C(=O)NCCCn4ccnc4)ccc3c(=O)c2O)cc1
→ 9.8	9.0	-3.0	-8.2	3265	-1.5	6.4
> CC1CN=C(Nc2cccc(S(=O)(=O)N(C)C)c2)S1 (stereo unspecified)
→ 7.8	10.4	3.5	-14.3	4452	8.4	11.0
> CC(C)c1ccc2[nH]c(O)c(N=NC(=S)NCCc3ccccc3)c2c1
→ -2.0	-30.0	3.2	0.4	2021	5.5	6.2
> O=C(CCC(=O)Nc1ccc(Cl)cc1Cl)NNC(=O)Nc1ccccc1
→ 4.0	-3.9	6.8	-10.3	3871	1.1	13.2
> Cc1ccc(NC(=O)CN2C(=O)c3ccccc3S2(=O)=O)cc1C
→ -0.2	-1.7	0.1	14.6	3941	0.6	-8.2
> CC1=Nc2ccccc2N=C(NC(=O)CN2CCN(c3ccccc3)CC2)C1c1ccccc1 (stereo unspecified)
→ 6.1	3.3	-10.2	-30.6	4549	1.1	-2.2
> O=C1NCCc2cc3c(cc21)OCO3
→ 3.6	2.4	-5.0	-9.5	4372	6.7	6.7
> CCC1=NN=C(c2ccc(F)cc2)C(c2c[nH]c3ccccc23)N1O (stereo unspecified)
→ -1.1	-8.5	2.3	-28.7	8877	1.1	1.3
> CC12CCC(C(=O)N(c3nccs3)C1=O)C2(C)C (stereo unspecified)
→ 4.8	4.4	.	-8.6	3783	8.0	20.8
> Nc1nc(Cl)cc(NCCc2ccc(O)cc2)n1
→ 1.2	12.2	-8.0	9.1	2061	9.6	-2.9
> CN(C(=O)COC(=O)C1c2ccccc2Oc2ccccc21)C1CCS(=O)(=O)C1 (stereo unspecified)
→ 5.0	-0.8	-6.6	-32.6	5001	.	.
> Cc1nc(C)c(CC(=O)N2CCc3c([nH]c4ccccc34)C2c2ccccn2)s1 (stereo unspecified)
→ 2.3	-1.7	-2.6	-15.4	2183	0.3	6.2
> O=C(NNC(=O)c1ccc(Br)s1)c1cccc(S(=O)(=O)N2CCCC2)c1
→ 4.3	6.4	.	-29.1	8626	-1.7	3.6
> O=C(c1c[nH]c2ccc(S(=O)(=O)N3CCOCC3)cc2c1=O)N1CCC2(CC1)OCCO2
→ 1.1	1.4	-5.5	-12.8	4435	0.7	10.2
> O=C1C2C(c3ccc(Cl)cc3)N3C(=O)N(c4cccc(Br)c4)C(=O)[C@@]3(Cc3ccc(Cl)cc3)C2C(=O)N1C1CCCCC1 (stereo partly specified)
→ -3.5	-12.2	.	.	.	-4.8	-6.3
> CN1CCc2c(sc(NC(=O)C3CCCN3S(=O)(=O)c3ccc(Cl)s3)c2C(N)=O)C1 (stereo unspecified)
→ 0.5	11.8	1.5	-19.2	5970	-0.5	3.3
> O=S(=O)(c1ccccc1)c1nc(-c2ccco2)oc1N1CCCCCC1
→ 0.5	1.9	.	-12.9	2798	.	.
> Cc1ccc(NC(=O)COC(=O)Cn2cnc3c2c(=O)n(C)c(=O)n3C)c(Cl)c1
→ 3.5	0.6	-14.3	0.3	4372	4.2	10.0
> Cc1cc(C)c(S(=O)(=O)N2CCN(C(=O)CN3C(=O)NC4(CCCC4)C3=O)CC2)c(C)c1
→ 1.0	-1.2	1.7	8.1	4268	-5.6	-5.4
> CCOc1ccc(-c2cc(N)n(S(=O)(=O)c3cccc4nsnc34)n2)cc1
→ -8.7	12.8	-4.8	-15.1	4913	-3.1	-1.9
> CCOC(=O)NC(=O)CSc1nnc(SCCC(=O)O)s1
→ 3.4	6.8	8.5	-16.5	2694	3.5	0.6
> CCOC(=O)c1c(NC(=O)CSc2nnc(-c3c[nH]c4ccccc34)n2CCOC)sc2c1CCCC2
→ 16.8	-15.3	-5.5	-10.0	6773	1.0	-0.4
> O=C(NNC(=O)c1cccc2ccccc12)c1cccc(Cl)c1
→ 4.2	-4.1	.	-21.4	3927	13.5	10.4
> CC(C)N(N=Nc1ccc([N+](=O)[O-])cc1)C(C)C
→ 10.3	11.7	6.1	-4.4	2211	6.0	-7.4
> O=[N+]([O-])c1ccc(CN2CCN(c3ccccc3Cl)CC2)o1
→ 1.4	1.4	-9.8	-23.7	3653	.	.
> CC(C)C(=O)Nc1ccc(NC(=O)c2ccccn2)cn1
→ 1.2	0.3	2.9	-26.2	2276	12.2	0.6
> COc1cccc(OC)c1-c1nn(-c2ncc(C(F)(F)F)cc2Cl)c(=O)o1
→ 1.4	-2.0	-8.5	-25.4	.	13.0	6.4
> C=CCc1ccc(OCCn2cccc2C=O)c(OC)c1
→ 22.0	12.2	-7.7	-76.4	8370	7.4	15.9
> COc1ccc(C=C2C(=O)NC(=S)NC2=O)cc1OC
→ -0.6	-0.4	.	-6.2	4067	8.0	5.9
> Cc1c(N=Cc2ccc[nH]2)c(=O)n(-c2ccccc2)n1C
→ 1.2	1.2	18.0	-5.6	10858	1.0	2.7
> CC(C)CC(NC(=O)c1ccc(Cl)cc1)C(=O)OCc1cc([N+](=O)[O-])cc2c1OCOC2 (stereo unspecified)
→ -6.2	20.3	-8.1	-14.0	2451	-4.4	-14.1
> CC(=O)NC(=S)Nc1ccc2oc(=O)ccc2c1
→ 1.1	2.0	3.5	-35.7	6432	10.9	4.9
> Cc1ccc(S(=O)(=O)N2CCCN(C(=O)c3ccc(-n4cccn4)cc3)CC2)cc1
→ 2.7	5.8	.	-6.6	2742	4.8	4.6
> CC(=O)N1CCN(C(=O)c2ccc(C(=O)c3ccccc3)cc2)CC1
→ 4.7	-2.5	-10.5	-19.7	3039	-5.8	-7.7
> Nc1cc(S(=O)(=O)Nc2ccc(Cl)cc2)ccc1N1CCOCC1
→ 6.3	9.1	-4.2	4.7	4403	-4.9	-8.4
> Cc1ccc(N2CC(C(=O)NN=Cc3c(F)cccc3Cl)CC2=O)cc1 (stereo unspecified)
→ 11.1	3.9	.	.	.	8.3	7.7
> c1ccc(Cc2noc(CN3CCC(CN4CCOCC4)CC3)n2)cc1
→ 3.3	0.2	19.4	-12.2	3435	1.5	5.4
> CCN(CC)S(=O)(=O)c1cccc(C(=O)NN=C(C)c2cccs2)c1
→ -0.6	1.2	.	.	.	-0.8	10.3
> CCOC1OC(C(=O)NC2CC2)=CC(c2ccc(Br)cc2)C1CCCO (stereo unspecified)
→ 6.8&2.5	1.6&-9.1	.	.	.	13.7&9.4	14.4&10.0
> O=[N+]([O-])c1ccc2c(c1Nc1ccccc1Cl)=NC1(CCCCC1)N=2
→ -0.8	5.1	-4.8	.	6244	3.5	4.5
> Cc1ccc(NC(=O)C2CCC(=O)N2)cc1C (stereo unspecified)
→ 3.2	7.8	-2.4	-18.4	4321	7.2	6.1
> COc1ccc(CCn2c(O)c(/C=N/N3CCCCC3)c(=O)[nH]c2=O)cc1OC
→ 2.7	1.9	8.3	-25.8	2441	12.2	14.5
> CCc1cc2cc(C)ccc2nc1SCC(=O)N1CC(=O)Nc2ccccc21
→ 2.7	3.7	-5.1	-10.1	5388	0.1	0.1
> OCC1OC(n2cnc3c(=S)nc[nH]c32)CC1O (stereo unspecified)
→ 3.5	1.0	.	11.6	3769	38.0	16.2
> CCOc1cc(S(=O)(=O)NCc2ccccc2)c(OCC)cc1-n1cnnn1
→ 1.0	2.4	3.9	-13.5	21889*	-2.4	-11.0
> Cc1cc(C)c(OCC(=O)Nc2nc(-c3ccccn3)cs2)c(C)c1
→ 12.7	9.8	-7.8	2.6	4144	4.6	-13.3
> COc1ccccc1Cn1c(=S)[nH]c2ccccc2c1=O
→ 0.2	1.4	-2.0	3.1	3727	9.4	8.0

This is a random part of the collection; overall some 4% were active at least once.
